Screening results: PubChem, ICCB-Longwood Screening Facility, Harvard Medical School
AID504770: growth inhibition of E. coli YBA685, primary screen, V. cholerae RctB inhibitors | 130,000 compounds, 0.27% hits | z-score (no concentration beside the values) | E. coli YBA685 rctB-dependent plasmid, OD600 growth, 3 h; stronger effect = lower value | AID 504770, 2011;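 active = z-score under -2 on both plates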;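 also: wells of about 30 µL received 100 nL stock; score is relative to mean and SD of the test wells; the first replicate is given; strong numbers were not always called active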
Ba CapD inh: Bacillus anthracis CapD inhibitors, primary screen, biochemical, fluorescence intensity; 140,000 compounds, 0.23% hits; AID 492967, 2010; z-score (concentration not given with the values); purified CapD enzyme, fluorescence intensity read-out; stronger effect = lower value; some hits fall short of the stated cut;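 active = z-score under -4 in either of two replicates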;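 also: stock transfer was 100 nL into about 40 µL; score is relative to mean and spread of the plate; one replicate is shown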
* hit, by the source's call; i = inactive; / = not tested or not shown. An excerpt, so the mix of outcomes need not match the whole.

SMILES	AID504770	Ba CapD inh
Cc1ccc(C2C=C(c3ccc(Br)cc3)Nc3nc4ccccc4n32)cc1 (centres undefined)	/	0.23
CCCCN(C)c1ncnc2onc(-c3ccc(Cl)cc3)c12	0.8	1.6
O=c1c2ccccc2[nH]c(=S)n1CCN1CCCCC1	1.1	-0.24
CN(C)c1cc(-c2ccccc2)nc(N)n1	-0.6	/
O=c1c(C=NCc2ccccn2)c(CSc2ccc(Cl)cc2)[nH]n1-c1nc2ccccc2s1	/	-0.46
CC(=O)Nc1ccc(SCc2nc3ccccc3c(=O)n2CC#N)cc1	1.1	/
COc1cccc(CC(=O)N(Cc2ccccc2)Cc2ccco2)c1	-0.35	/
S=c1[nH]nc(-c2ccccc2Cl)o1	0.3	1.7
COc1ccc(CN2CCC(N3CCN(CCO)CC3)CC2)cc1OC	-1.1	0.055
COc1ccc(-n2nc(C)cc2N)cc1	-0.15	/
Cc1cc(=O)[nH]c(N/N=C/C2CC=CCC2)n1 (centres undefined)	0.1	/
O/N=C/c1cc[n+](C/C=C\c2ccccc2)cc1	0.7	0.25
O=C(O)c1cccc(-c2ccc(/C=C3/SC(=O)N(c4ccccc4)C3=O)o2)c1	-0.85	18
CC1(C)OCC(COC(=O)/C=C/c2ccc(F)cc2)O1 (centres undefined)	-0.4	/
Cc1coc(NC(=O)CSc2nc(-c3ccc4c(c3)OCO4)cc(C(F)(F)F)c2C#N)n1	2.1	0.49
OCC1CCCN(Cc2ccc(F)cc2)C1 (centres undefined)	-0.3	0.26
COc1ccc(Nc2c(-c3cccc(O)c3)nc3ncccn23)cc1	1.8	-0.94
CCN(CC)C(=O)Cn1nnc(-c2ccccc2)n1	0.25	0.98
COc1cccc(-n2c(=O)c3c4c(sc3n(CC(=O)NC3CCCC3)c2=O)CCCC4)c1	0.35	-0.15
O=C(CSC1=NCCN1)Nc1cc(C(F)(F)F)ccc1Cl	-0.25	-0.57
COC(=O)CCCCC1=C(NC(C)=O)C(NC(=O)c2ccccc2)CS1 (centres undefined)	-0.1	-0.12
Cc1cccc(CSc2ccc(-c3ccco3)nn2)c1	0.05	/
O=C(c1ccccc1)c1cc(Cl)ccc1N=Cc1cccs1	0	-0.58
Cc1ccc2nc(NC(=O)C3CCCCC3)sc2c1	-0.95	i
Cc1ccccc1NC(=O)C(Cc1c[nH]c2ccccc12)NC(=O)Oc1ccccc1 (centres undefined)	/	0.91

Two of the compounds above, with values under each structure.
Value order – AID504770	Ba CapD inh
- COc1cccc(-n2c(=O)c3c4c(sc3n(CC(=O)NC3CCCC3)c2=O)CCCC4)c1
 : 0.35	-0.15
- O=C(CSC1=NCCN1)Nc1cc(C(F)(F)F)ccc1Cl
 : -0.25	-0.57

(further entries)
SMILES	AID504770	Ba CapD inh
Cc1ccc(/C=C2\SC(=S)N(CN3CCCCCC3)C2=O)cc1	/	-2.3
CN(C)[C@@H]1C(=O)C(C(=O)NCN2CCCC2)=C(O)[C@@]2(O)C(=O)C3=C(O)c4c(O)cccc4[C@@](C)(O)C3CC12 (some centres undefined)	/	-3.1
O=C1CCC(C(=O)n2ccnc2)C(c2ccccc2)N1C1CCCCC1 (centres undefined)	/	-0.33
Cc1ccc(/C=C2\CCc3ccccc3C2=O)o1	/	1.2
Cc1nc(SC(C)C(=O)NCc2ccc3c(c2)OCO3)nc(C)c1C (centres undefined)	-0.45	/
O=S(=O)(NC(c1ccccc1)C(O)c1ccccc1)c1c(F)cccc1F (centres undefined)	/	-0.67
CCOC(=O)Nc1ccc2c(c1)Nc1ccccc1S2	0.1	/
NC(=O)Cn1nnc2ccccc2c1=O	-0.4	/
O=C(CCn1nc(-c2ccccc2)c2ccccc2c1=O)N1CCCCC1	-0.35	/
CCOc1cc(NS(=O)(=O)c2ccc(OC)cc2)c(OCC)cc1NC(=O)CC	-1.2	/
CC1=CCC(C(=O)Nc2nccs2)C(C(=O)Nc2nccs2)C1 (centres undefined)	0.15	0.3
Cc1ccc(C(=O)N(C)CC(=O)Nc2ccc(F)c(F)c2F)o1	1.6	/
N#CC1(S(=O)(=O)c2ccc(Cl)cc2)CC1	-0.75	-0.18
N#CCCS(=O)(=O)c1ccccc1F	/	0.49
Cc1cc(S(=O)(=O)Nc2cc(C(=O)NCc3ccccc3)ccc2N2CC3CC(C2)c2cccc(=O)n2C3)ccc1F (centres undefined)	/	0.8
c1csc(C2SCCS2)c1	1.8	/
Cc1nn(C)c(C)c1NC(=O)c1ccccc1NS(C)(=O)=O	/	0.46
CCOP(=S)(OCC)SCSn1c(=O)oc2cc(Cl)ccc21	1.8	-0.75
O=C(C1CC(c2c(F)cccc2Cl)=NO1)N1CCCC1 (centres undefined)	-0.25	0.18
Cc1cc(C)c(CN2C(=O)C(=O)N(Cc3ccccc3F)C2=O)c(C)c1	/	-0.5
COc1ccc(NC(=O)c2c(NC(=O)c3cccnc3)sc3c2CCCCC3)cc1	/	-0.18
COc1cc(C=Nc2ccc(Br)c(Cl)c2)ccc1O	-0.5	-1.6
O=C(NC1CCCc2ccccc21)c1ccc(S(=O)(=O)NCc2ccco2)cc1 (centres undefined)	-1.5	/
CNc1cc(F)nc(F)n1	-0.5	0.73
CSCc1cc(=O)[nH]c(C)n1	0.25	0.06
CCOC(=O)c1sc(-c2cnccn2)nc1C	/	0.76
COC(=O)c1cccc(NS(=O)(=O)c2ccccc2)c1	0.25	0.36
CC(C)(C)c1cc(CCC#N)cc(C(C)(C)C)c1O	0.15	0.14
Cc1cc(Br)ccc1N(NC(=O)C(O)(c1ccc(Cl)cc1)c1ccc(Cl)cc1)C(=O)c1ccccc1	/	0.38
CCCC(C(=O)NC1CCCC1)N(C(=O)Cn1nnc(-c2ccc(C)o2)n1)c1ccccc1 (centres undefined)	-0.55	/
Cc1sc2ncnc(Oc3ccc(NC(=O)c4ccccc4)cc3)c2c1C	/	0.88
CN(c1ccc(C(=O)Cn2nc(C(=O)O)c3ccccc3c2=O)cc1)S(C)(=O)=O	-0.7	/
CCOC(=O)c1c(SC)[nH]c2ccc(Cl)cc2c1=O	1.2	0.1
Cc1cc(-c2ccccc2)nc(SC(C)C(=O)N(C)C)n1 (centres undefined)	-0.7	/
CCNC(=S)NNC(=O)c1cccn(Cc2ccc(Cl)cc2Cl)c1=O	/	0.61
COC(=O)c1cc(OC)c(OC)cc1NC(=O)Cc1ccc(OCc2c(C)noc2C)cc1	-0.7	/
CC1=C(C(=O)Nc2ccc(C)cc2)C(c2ccc(Br)cc2)n2ncnc2N1 (centres undefined)	/	0.015
Cc1ccc(NC2=NCCS2)cc1Cl	-0.05	0.71
CCc1ccc(-c2cc(C)no2)cc1S(=O)(=O)N(C)C1CCCCC1	1.6	-1.4
CCOC(=O)c1cc(-c2ccco2)nc2c1c(C)nn2-c1ccccc1	-0.05	/
O=C(CN1CCCC1)c1cccc(C(F)(F)F)c1	0.05	/
CCOC(=O)c1sc(=N)n(-c2ccc(OC)cc2)c1C	-0.65	/
COC(=O)CC1=C(C(=O)OC)C2(C(=O)N(C)c3ccccc32)C(C(=O)OC)=C(N)O1 (centres undefined)	1	0.23
COc1ccc(CNc2nc(SCC(=O)Nc3cccc(OC)c3)nc3ccccc23)cc1	/	-0.48
O=C1c2ccccc2C(=O)N1CC1c2ccccc2CCN1S(=O)(=O)c1ccc([N+](=O)[O-])cc1 (centres undefined)	/	-1
Cc1c(CCN2C(=O)OC3(CC(C)(C)NC(C)(C)C3)C2(C)O)c2ccccc2n1C (centres undefined)	/	0.045
Cn1c(SC2CCCCC2=O)nnc1-c1ccncc1 (centres undefined)	-0.85	/
COc1ccc(-c2nnc(C3CCN(S(=O)(=O)c4cc(Br)cc5c4N(C(C)=O)CC5)CC3)o2)cc1	1.6	-1.1
CCCCN(CC)C(=O)c1sc2nc(C)nc(N3CCN(c4ccccn4)CC3)c2c1C	/	-0.8
CCOC(=O)CSC(=S)Nc1ccc(C)cc1C	/	0.14

(further entries)
SMILES	AID504770	Ba CapD inh
CCOC(=O)C1=C(C)OC(N)=C(C(=O)OCC)C12C(=O)Nc1ccccc12 (centres undefined)	-0.75	0.21
Cc1cc(C(=O)OCC(=O)N(C)Cc2ccccc2)c(C)o1	-1	0.26
O=C(Nc1cccc(-n2cnnn2)c1)c1ccccc1	0.2	/
CCCC#CCCOC(=O)N1CCN(c2ccccc2Cl)CC1	/	-0.61
Cn1c(Cn2c(=O)sc3ccccc32)nnc1SCC(=O)NCc1ccccc1Cl	-0.75	-0.34
COC(=O)CCC(=O)NC1CCN(Cc2cccc(OC)c2[N+](=O)[O-])C1 (centres undefined)	/	-0.37
Cc1ccc(NC(=O)CC(C(=O)O)N2CCN(C)CC2)cc1Cl (centres undefined)	1.4	-0.12
S=c1nc[nH]c2c1sc1ncccc12	-0.1	-0.6
O=C(CSc1ccc(Cl)cc1)N1CCCc2ccccc21	-0.6	0.3
CNC(=O)/C=C/c1cccc(C(F)(F)F)c1	0.85	-0.65
COc1ccc(C)cc1-n1c(C)nc2cc(C(=O)NCC(OC)OC)ccc21	-1.7	0.95
NS(=O)(=O)c1ccc(CCNC(=O)CSc2nc3ccc(Br)cc3c3nc4ccccc4n23)cc1	/	0.07
COC(=O)c1c(N2C(=O)C=CC2=O)sc2c1CCC(C)C2 (centres undefined)	-0.75	0.22
CCOC(=O)c1cc(-c2ccc(C)cc2)n(CCCC(=O)Nc2cccc(CC)c2)c1	-0.8	0.05
CC(=O)C12c3ccccc3C(c3ccccc31)C1C(=O)N(c3ccc([N+](=O)[O-])cc3Br)C(=O)C12 (centres undefined)	/	-0.48
CN(C)/C=N/c1nnc(C(F)(F)F)s1	/	-0.26
CC1Cc2ccccc2N1S(=O)(=O)c1cccc(C(=O)NCCCn2ccnc2)c1 (centres undefined)	-0.45	/
O=C(NCCCN1CCOCC1)c1cccc(S(=O)(=O)N2CCCC2)c1	-2.2	/
Cc1c(C(=O)Nc2ccccc2Cl)oc2ccc(S(=O)(=O)N3CCOCC3)cc12	1.8	4.5
N#C/C(=C\c1cccc(Cl)c1)c1nc(-c2cc3cc(Br)ccc3oc2=O)cs1	/	0.26
O=c1[nH]ncc(Nc2ccc(F)cc2)c1Cl	-0.2	/
O=C(NCc1ccccc1)C1CCCN1S(=O)(=O)c1ccc(Cl)cc1 (centres undefined)	-0.75	/
CCn1cc(NC(=O)Nc2ccccc2C(=O)OC)c(C(N)=O)n1	-0.65	5.7
Cc1cc2nc3s/c(=C/c4cccn4-c4ccc([N+](=O)[O-])cc4)c(=O)n3c2cc1C	/	-0.45
CC1CCN(c2ccc([N+](=O)[O-])cc2[N+](=O)[O-])CC1	/	0.07
CCSC(=O)Nc1cc2sccc2nc1C(F)(F)F	/	24
COc1cc2c(cc1OC)C1(CCCC1)CN=C2c1cccc([N+](=O)[O-])c1	/	-0.4
CCn1cc2c(n1)C(=O)N(c1ccccc1)C1c3ccccc3C(=O)N21 (centres undefined)	-0.35	0.25
CCOC(=O)c1c(C)oc2c1c1c(c3ccccc32)OCN(CCc2ccccc2)C1	-0.55	-0.12
CCC1CCCCN1C(=O)C1CCCCC1 (centres undefined)	-0.15	0.46
CC1(C)CC(=O)C(C=NCCN2CCN(C3CC(=O)N(c4ccc(Br)cc4)C3=O)CC2)=C(O)C1 (centres undefined)	0.3	0.24
N#C/C(C(N)=O)=C1/CCc2ccccc2N1	0.3	2
CCN(CC)S(=O)(=O)c1ccc(N=Nc2sc(N)nc2-c2ccccc2)cc1	-0.3	/
N#Cc1ccccc1-c1ccccc1C(=O)O	-0.15	/
CS(=O)c1ccc2c(c1)CCN2 (centres undefined)	/	0.14
CC(=O)Oc1cccc(N2Cc3ccccc3C2=O)c1	-0.2	-0.26
CSc1ccccc1C(=O)N1CCN(c2ccccc2)CC1	0	/
O=[N+]([O-])c1cc(S(=O)(=O)NCc2ccco2)cc2c1-c1c(cc(S(=O)(=O)NCc3ccco3)cc1[N+](=O)[O-])C2=NO	/	1.1
Cc1cc2ncn(C(C)c3ccccc3)c2cc1C (centres undefined)	-0.8	-0.23
O=C(O)c1cccc(CSc2nnc(COc3ccccc3)o2)c1	1.5	-0.21

By substructure, the entries above with a cyano group (8)
SMILES	AID504770	Ba CapD inh
CC(=O)Nc1ccc(SCc2nc3ccccc3c(=O)n2CC#N)cc1	1.1	/
Cc1coc(NC(=O)CSc2nc(-c3ccc4c(c3)OCO4)cc(C(F)(F)F)c2C#N)n1	2.1	0.49
N#CC1(S(=O)(=O)c2ccc(Cl)cc2)CC1	-0.75	-0.18
N#CCCS(=O)(=O)c1ccccc1F	/	0.49
CC(C)(C)c1cc(CCC#N)cc(C(C)(C)C)c1O	0.15	0.14
N#C/C(=C\c1cccc(Cl)c1)c1nc(-c2cc3cc(Br)ccc3oc2=O)cs1	/	0.26
N#C/C(C(N)=O)=C1/CCc2ccccc2N1	0.3	2
N#Cc1ccccc1-c1ccccc1C(=O)O	-0.15	/
